High-throughput results: PubChem, several laboratories
HIV Env fusion = inhibitors of HIV Env-mediated cell fusion; HeLa-JRFL Env/CEM21 cell fusion, luciferase; inhibition, % at 12.3 µM; 1.1% of 360,000 active; AID 651610;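 active = mean replicate inhibition score of at least 50 and every replicate individually at or above 50; inconclusive = only one of the two criteria met; inactive = mean below 50 and not all replicates reaching 50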;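 note: 0% = plate neutral controls and 100% = maraviroc near 300 nM; one replicate is shown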
Rce1 inhib = inhibitors of yeast Ras-converting enzyme. Q03530. yeast membranes, quenched prenylated peptide cleavage fluorescence. calls only. 0.27% of 290,000 active. AID 2563;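 active = fall in fluorescence gain of 50% or more versus controls, with final raw signal at or below 3038400; inconclusive = same 50% fall but final raw signal above 3038400; inactive = fall in fluorescence gain under 50%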;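 note: plate controls were neutral control wells for no effect and wells lacking membranes for full effect; tested at 10 µM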
PABP polyA inh = PABP-poly(A) binding inhibition; PABP-poly(A) RNA binding, fluorescence polarization; inhibition, % at 35 µM; 1% of 290,000 active;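 active = 50% or more with normal probe brightness, or confirmed in later tests; inconclusive = above 50% with abnormal brightness, or retests that disagree; inactive = below 50% or failed in later tests; about a fifth of its hits are not listed in these tables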;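 note: calls also rest on retests at 20 µM and on dose response follow-up; controls were probe without protein and protein plus probe with vehicle; some compounds called inactive have numbers as strong as hits; many hits fall short of the cut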
Target sequence (P11940 whole entry, looked up): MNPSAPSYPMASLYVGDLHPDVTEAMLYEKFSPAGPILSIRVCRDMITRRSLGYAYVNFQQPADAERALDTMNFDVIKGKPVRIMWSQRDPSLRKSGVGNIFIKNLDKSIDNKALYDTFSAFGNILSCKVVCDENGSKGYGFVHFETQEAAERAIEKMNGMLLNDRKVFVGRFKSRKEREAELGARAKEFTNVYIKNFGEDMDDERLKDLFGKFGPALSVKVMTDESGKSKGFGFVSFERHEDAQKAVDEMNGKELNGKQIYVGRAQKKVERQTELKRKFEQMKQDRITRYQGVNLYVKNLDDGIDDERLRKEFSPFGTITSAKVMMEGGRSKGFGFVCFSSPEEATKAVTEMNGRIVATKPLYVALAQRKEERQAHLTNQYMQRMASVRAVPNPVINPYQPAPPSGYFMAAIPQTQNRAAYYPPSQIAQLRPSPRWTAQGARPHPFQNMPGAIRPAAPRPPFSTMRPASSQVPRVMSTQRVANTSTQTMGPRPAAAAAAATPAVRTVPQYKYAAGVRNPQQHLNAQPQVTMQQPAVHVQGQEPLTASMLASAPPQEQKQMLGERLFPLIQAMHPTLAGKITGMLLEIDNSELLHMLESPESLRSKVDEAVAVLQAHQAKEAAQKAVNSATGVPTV
Yeast UUG start = yeast start codon fidelity modulation; S. cerevisiae UUG-firefly luciferase reporter, luminescence/redox ratio; AID 602363; activity score, % at 18.7 µM; 0.13% of 350,000 active;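 active = replicate mean at a twofold rise or more, about +100% in these data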;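 note: firefly luciferase made from a UUG start codon reports start codon fidelity; reporter light over untreated wells divided by growth signal over untreated wells; some hits fall short of that in this replicate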
CSC inhib = blocks cancer stem cells; inhibition, % at 7.5 µM; cancer stem cell-like cells viability, luminescence; 1.1% of 300,000 active;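 active = mean at 75% or more and at least half the replicates too; inconclusive = mean and replicates disagree; tested in HMLE shEcad cells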;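 note: 0% = median of negative and 100% = median of positive control wells; the first replicate is given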
MT1-MMP act inh = inhibitors of human MT1-MMP activation. P50281. HT1080 RFP-PRO-GFP cells, GFP/RFP ratio fluorescence, overnight; percent of plate control window, DMSO zero. GFP/RFP ratio change, % at 20 µM. 0.061% of 360,000 active;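 active = GFP/RFP ratio change of at least 30% with cell ATP level not reduced by more than half and red fluorescence within 50% of control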; note: strong numbers were not always called active
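Compound: 20 µM single dose, 1% DMSO / System: HT1080 RFP-PRO-GFP cells / Controls: DMSO and RFP-L50D-GFP cell wells / Read-out basis: GFP/RFP fluorescence ratio / Schedule: overnight compound exposure at 37 °C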
eIF4H FP inh = inhibitors of RNA binding by human eIF4H; eIF4H fluorescence polarization binding assay; inhibition, % at 35 µM; 0.94% of 290,000 active; AID 2012;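 active = 50% or more with normal probe brightness, or confirmed in later tests; inconclusive = above 50% with abnormal brightness, or retests that disagree; inactive = below 50% or failed in later tests; about a fifth of its hits are not listed in these tables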;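 note: calls also rest on retests at 20 µM and on dose response follow-up; 0% = protein and probe with vehicle and 100% = probe without protein; strong numbers were not always called active; many hits fall short of the cut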
eIF4H FP inh retest = second read-out of eIF4H FP inh, no call of its own (marks repeat the call); inhibition, %; compound at 20 µM; confirmation average;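 mean of two retest wells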
PABP polyA inh retest = recorded beside PABP polyA inh, whose call it bears; inhibition, %; compound at 20 µM; confirmation repeats;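 mean of two retest wells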
MT1-MMP act inh RFP = also measured in MT1-MMP act inh; calls as there; RFP signal change, %; measured here: RFP expression control read;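 0 = vehicle wells; hits needed this value within 50% of zero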
* = called active by the depositor; i = inactive; u = inconclusive; x = no result given; & = joins results of further samples. Not a hit list (roughly 3% active in at least one column).

SMILES | HIV Env fusion | Rce1 inhib | PABP polyA inh | Yeast UUG start | CSC inhib | MT1-MMP act inh | MT1-MMP act inh RFP | eIF4H FP inh | others
Cc1cc(-c2csc(N)n2)c(C)n1-c1ccc(Cl)c(Cl)c1 | -9 | i | 4 | x | 1 | 17 | 30 | 58 | eIF4H FP inh retest=10;PABP polyA inh retest=20
COC(=O)c1cccnc1NC(=S)NC1CCCCC1 | 4 | i | 4 | -16 | -10 | 4 | 5 | -4
CCc1noc(C)c1C(=O)Nc1ccc(S(=O)(=O)N2CCCCC2)cc1 | -5 | i | x | x | -6 | -4 | -2 | x
CN(C1(C)CCS(=O)(=O)C1)S(=O)(=O)c1ccc2ccccc2c1 (centres undefined) | 1 | i | x | 6 | -1 | 2 | -3 | x
COc1ccc2nc(SCc3ccccc3C)nc(C)c2c1 | -10 | i | 35 | x | 9 | -1 | 1 | -13
Cc1c(C(=O)OCC(=O)NC(C)c2ccccc2)oc2ccccc12 (centres undefined) | x | i | -4 | -18 | x | 0 | 4 | -11
C[n+]1ccccc1/C=N/O | 3 | i | -3 | -9&-11 | 7&-8 | 4&-3 | 1&3 | 0
COc1ccc(C(=O)NCC(=O)N2CCNC(=O)C2)cc1OC | 1 | i | -4 | -6 | 17 | 0 | 1 | -5
Cc1nc2ccccc2c(=O)n1/N=C/c1ccncc1 | -18 | i | -2 | -13 | x | -2 | 4 | -6
Cc1ccc(C(=O)Nc2ccccc2N2CCN(C(=O)C(C)C)CC2)cc1 | -125 | i | -2 | -16 | -14 | 2 | -2 | -5
O=C(NCC1CCCO1)c1cccc(NC(=O)c2ccccc2)c1 (centres undefined) | -17 | x | 2 | -18 | 6 | 1 | 0 | 2
C=C(C(=O)c1ccccc1)C(C)CC(=O)c1ccccc1 (centres undefined) | -12 | i | 4 | x | 32 | -4 | -3 | -5

The closing two entries of the section above come first, to join the parts.
SMILES | HIV Env fusion | Rce1 inhib | PABP polyA inh | Yeast UUG start | CSC inhib | MT1-MMP act inh | MT1-MMP act inh RFP | eIF4H FP inh | others
O=C(NCC1CCCO1)c1cccc(NC(=O)c2ccccc2)c1 (centres undefined) | -17 | x | 2 | -18 | 6 | 1 | 0 | 2
C=C(C(=O)c1ccccc1)C(C)CC(=O)c1ccccc1 (centres undefined) | -12 | i | 4 | x | 32 | -4 | -3 | -5
O=C(CSCc1ccc(Cl)cc1)Nc1cccc(C(=O)Nc2ccccc2C(=O)O)c1 | x | i | 5 | -4 | 18 | -2 | 8 | 6
O=C(c1cc(COc2ccc(F)cc2Cl)on1)N1CCN(c2cnccn2)CC1 | 9 | i | 0 | -5 | 20 | 0 | 1 | -5
Cc1cc(C)c(C(=O)c2ccccc2)c(C)c1 | 17 | x | x | -22 | x | 1 | 0 | x
COc1ccc(OCc2cc(/C=N\NC(=O)c3ccccc3)ccc2OC)cc1 | 26 | i | 5 | -18 | -4 | -8 | -14 | 18
CC(C)CC(c1nnnn1C(C)(C)C)N1CCN(Cc2ccccc2)CC1 (centres undefined) | 6 | i | 0 | -2 | -12 | -1 | -1 | -2
COc1ccc(C2SCC(=O)N2c2nc3ccccc3s2)cc1 (centres undefined) | 9 | i | 8 | -6 | 5 | -1 | -3 | 7
COc1ccccc1C(=O)N/C(=C/c1ccc(Br)cc1)C(=O)NCCCn1ccnc1 | 7 | i | 8 | -8 | 18 | -1 | -2 | -8
O=C1Cc2ccccc2Sc2ccc(O)cc21 | x | i | 8 | x | -10 | -1 | 0 | -4
CC(C)C(NC(=O)c1ccccc1Cl)C(=O)OCc1nc2scc(-c3ccccc3Cl)c2c(=O)[nH]1 (centres undefined) | -40 | i | 5 | x | x | 4 | 1 | 8
CCOc1ccc(-n2nnc3c(=O)n(CC(=O)c4ccccc4)cnc32)cc1 | -21 | i | 4 | 0 | -14 | 2 | 0 | 8
CC(C)C(=O)Nc1ncc(Cc2cccc(Cl)c2)s1 | 20 | i | 6 | x | 26 | 1 | -1 | -9
COC(=O)CCC(=O)N1CCOCCOCCOCC1 | 2 | i | 3 | x | x | -1 | 5 | 8
CCOCCCn1cnc2c3cc(F)ccc3n(C)c2c1=O | -10 | i | 0 | 9 | -8 | 1 | 1 | -6
COc1ccccc1Cc1c(C2CCCCC2)nc2ccc(C)cn12 | -14 | x | x | 1 | x | 1 | -2 | x
COc1cc2c(cc1OC)CN(C(=O)CSc1nc(N)c(C#N)cc1C#N)CC2 | x | i | 17 | x | x | -3 | 2 | 2
CC1=[N+]([O-])C(N2CCOCC2)C(O)(c2ccccc2)C1 (centres undefined) | x | i | 5 | x | -16 | 3 | 3 | 2
COC(=O)c1c(C)[nH]c(C(=O)OC(C)C(=O)N2CCOCC2)c1C (centres undefined) | -14 | i | x | -17 | x | -1 | 1 | x
O=C(COC(=O)C12CC3CC(CC(O)(C3)C1)C2)Nc1ccc(Cl)c(S(=O)(=O)N2CCOCC2)c1 | x | x | x | 16 | -12 | 4 | 3 | x
CCN1C(=O)[C@H]2[C@@H](c3ccc(C)cc3)N3C(=O)N(c4ccc(OC)cc4)C(=O)[C@@]3(C)[C@H]2C1=O | -34 | i | -7 | -5 | -12 | -5 | 2 | 0
O=C(NN=Cc1ccc(O)cc1)c1ccccc1NS(=O)(=O)c1cccs1 | 6 | x | x | -13 | -5 | -5 | 3 | x
COc1cc2c(cc1OC)C(CSc1ccccc1C(=O)O)=NC(C)(C)C2 | -4 | i | 22 | x | -12 | -5 | 3 | -2
Cc1ccc2ccccc2c1C(O)c1ncc(-c2ccccc2F)[nH]1 (centres undefined) | 6 | x | x | -19 | x | 1 | -5 | x
CC(C)(C)OCC(O)CN1CCN(C(=O)c2ccccc2)CC1 (centres undefined) | 19 | i | 3 | -5 | -12 | 2 | 5 | 10
Cc1ccc(CNC(=O)CCOc2ccc(C(C)(C)C)cc2)cc1 | 10 | i | -4 | -13 | -3 | -2 | 0 | -5
COC(=O)C1Cc2ccccc2CN1C(=O)CCl (centres undefined) | 12 | i | -12 | x | -4 | -1 | 0 | -11
O=C(COC(=O)c1cccnc1Cl)Nc1cccc(S(=O)(=O)N2CCCCC2)c1 | 13 | i | -13 | x | -3 | -1 | 3 | -4
O=C(CN1C(=O)NC2(CCCC2)C1=O)OCC(=O)c1cccc(Cl)c1 | -7 | x | x | 3 | x | 0 | 1 | x
COc1ccccc1OCC(=O)N(Cc1nc(-c2ccc(Cl)cc2)no1)C(C)C | 23 | i | 10 | -23 | 1 | 1 | -4 | 2
CCCC(=O)N1CCCC(c2nc(-c3cccc(OC)c3)no2)C1 (centres undefined) | -7 | i | -11 | x | -8 | 2 | 2 | -10
O=[N+]([O-])C1=CC=C2C(=NC3(CCCCC3)N2O)C1=NCCO | x | x | -2 | 17 | -4 | 2 | 3 | 1
CC(=O)Nc1ccc(NC(=O)C(C)OC(=O)/C=C/c2cccs2)cc1 (centres undefined) | -8 | i | -1 | x | -16 | -1 | -5 | 3
COc1cc(/C=C/C(=O)NC(C)CCc2ccccc2)cc(OC)c1OC (centres undefined) | -13 | i | 5 | x | -15 | 22 | -5 | -16
O=[N+]([O-])c1cc(-n2cccc2)ccc1N1CCOCC1 | 23 | i | 6 | x | -4 | 2 | -2 | -11
CC(C)NS(=O)(=O)c1ccc(OCC(=O)Nc2ccc3c(c2)OCCO3)cc1 | 32 | i | -2 | -4 | -10 | -2 | -4 | -12
CCCCNS(=O)(=O)c1ccc(S(=O)(=O)n2cnc3ccccc32)cc1 | x | x | -12 | -6 | 9 | 11 | 4 | 2
N#Cc1ccc(-c2ccc(F)cc2)nc1Oc1ccc(Cl)c(Cl)c1 | -65 | i | -2 | -12 | 12 | 5 | -2 | 2
O=C(O)CN1C(=O)CSc2ccccc21 | -107 | i | 11 | -23 | -8 | 2 | -4 | -8
Cc1cc2ccccc2c(=O)n1CC(=O)NCCC1=CCCCC1 | -7 | i | -3 | -10 | 4 | -2 | 1 | -8
Cc1cccc(NC(=O)CCS(=O)(=O)c2cccc3nonc23)c1C | -10 | i | 5 | -13 | x | -1 | -3 | 12
CCOc1nc(-c2ccc(C)cc2)ccc1-c1noc(COC)n1 | 15 | i | -14 | -18 | 3 | -2 | -4 | -6
Cc1ccc(NS(=O)(=O)c2c(C)[nH]c(=O)[nH]c2=O)cc1C | x | i | 11 | -33 | 10 | 5 | 2 | -8
Cc1ccc(C(=O)N/N=C\c2ccccc2[N+](=O)[O-])cn1 | -19 | i | 4 | x | x | 1 | -1 | 0
CC(=O)Nc1ccc(S(=O)(=O)N(Cc2ccccc2)c2ccccc2)cc1 | 2 | i | -1 | -21 | -1 | 4 | 5 | 2
C[C@@H](CN1C2=NC[C@H](Cc3ccc(O)cc3)N2C[C@H]1Cc1ccc(O)cc1)NC(=O)CCC1CCCCC1 | 22 | i | -4 | 6 | -13 | -3 | -5 | -8
CCN(CCO)C(=O)c1ccc2nc(Cc3ccc(OC)cc3)oc2c1 | -15 | i | x | 2 | 2 | 5 | -1 | x
COC(=O)C(Cc1cnc[nH]1)NC(=O)C1CCC(=O)N1 (centres undefined) | -17 | i | -5 | -7 | 5 | -3 | -4 | -5
Cc1onc(-c2ccccc2)c1C(=O)N1CCN(C/C=C/c2ccccc2)CC1 | 13 | i | 71* | -5 | -3 | 0 | -2 | 28* | eIF4H FP inh retest=63*;PABP polyA inh retest=72*
CCOC(=O)C1(Cc2ccc(OC)cc2)CCN(C(=O)Cc2cccnc2)CC1 | 14 | i | -6 | -14 | -22 | 1 | 0 | -12
COc1ccc(/C=C(/NC(=O)c2ccc(C)cc2)C(=O)NCc2ccncc2)cc1 | 2 | i | x | -15 | 7 | -5 | 3 | x
O=S(=O)(c1ccc(OCC(O)CN2CCc3ccccc3C2)cc1)N1CCOCC1 (centres undefined) | x | i | -1 | 3 | -4 | -3 | 7 | 3
CCOC(=O)c1oc2ccccc2c1NC(=O)c1cccc(OC)c1OC | u | i | 8 | -6 | x | -2 | -1 | 1
Cc1ccc(-c2cnc(N)n2C)cc1C | -150 | i | -10 | -29 | 21 | 12 | 7 | 1
CCc1cccc(C)c1NC(=O)COC(=O)CNC(=O)c1cccs1 | -1 | i | x | x | -13 | 4 | 7 | x
CCOC(=O)NC(=O)COC(=O)CCCSc1nc2ccccc2s1 | 16 | i | 23 | x | -7 | -1 | 1 | 0
O=c1cc(-c2cccc(Cl)c2)oc2cccc(O)c12 | -32 | i | 1 | -15 | -7 | 2 | 2 | 0
CCOc1ccc(S(=O)(=O)N2CCCC(C(=O)Nc3cccc(C)c3)C2)cc1 (centres undefined) | -1 | i | 5 | -14 | -10 | -30 | -26 | -7
CCc1ccc2[nH]cc(C(=O)OCCOC)c(=O)c2c1 | -48 | i | -2 | -22 | -9 | 9 | 5 | -4
CCOC(=O)N1CCN(C(=S)NC(=O)c2ccc(Br)cc2)CC1 | 2 | i | 6 | x | -2 | 5 | 2 | 1
O=C(/C=C/c1ccc(Cl)cc1Cl)Nc1ccncc1 | -178 | i | -19 | x | 13 | 0 | -18 | -2
CC(C)Cn1c(N)c(S(=O)(=O)c2cccs2)c2nc3ccccc3nc21 | x | i | 22 | -10 | x | 4 | 5 | 14
C/C(=N\Nc1cccc(Cl)c1)C1(C)N(O)C(C)(C)C(c2ccco2)=[N+]1[O-] (centres undefined) | 9 | i | 0 | 0 | 84* | 0 | -2 | -9
COc1ccc(S(=O)(=O)N2CCN(c3ccccc3)CC2)cc1C(=O)N1CCCC1 | -5 | i | -7 | 2 | -15 | -2 | -6 | -4
